Screening results as filed in PubChem.
Mtb H37Rv – Mycobacterium tuberculosis H37Rv growth inhibition, cell based, confirmatory dose response (AID 1949); M. tuberculosis H37Rv growth inhibition; most inactive calls were filed without a number and no value below 0 was filed; one-dose inhibition, % at 10 µg/mL; IC50 in µg/mL for titrated hits; actives 1.6% (n = 100,000);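 active = confirmed in a dose series; inconclusive = about 50% or more but not retested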;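 also: bacteria grown 7 days with compound before Alamar blue readout; 0% = untreated bacteria and 100% = reference antibiotic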
Starred values were filed as active, the others as inactive; i = inactive; u = inconclusive.

SMILES | Mtb H37Rv
CCOC(=O)c1cc(CC)sc1NC(=O)c1ccc(Br)cc1 | i
CC1Cc2ccccc2N1c1ncnc(N)c1[N+](=O)[O-] (stereo unspecified) | 3%
CCCCn1c(CCNC(=O)c2cccs2)nc2ccccc21 | i
CCOc1ccccc1NC(=O)C1CC2CCCC(C1)C2=O (stereo unspecified) | i
COc1cc(OC)c([N+](=O)[O-])cc1CO | i
CCn1c(SCC(=O)Nc2ccc(-c3nc4ccc(C)cc4s3)cc2)nnc1-c1cccnc1 | i
CC1(C)Cc2c(sc(NC(=O)c3ccccc3)c2C(N)=S)CO1 | i
CC(=O)Nc1cc(C(=O)OCc2cccc([N+](=O)[O-])c2)ccc1C | 0%
COc1ccc(N2C(=O)CC(Sc3n[nH]c(C)n3)C2=O)cc1 (stereo unspecified) | i
COC(=O)c1ccc(CSc2nnc(CSc3nc4sc(C)c(C)c4c(=O)[nH]3)n2-c2ccccc2)cc1 | 2%
COc1cc(OC)c(NC(=O)c2cnccn2)cc1Cl | i
Cc1ccnc(NS(=O)(=O)c2ccc(NC(=O)c3oc4cc(C)c(C)cc4c3C)cc2)n1 | i
CCCC(=O)NC(=S)Nc1cc(-c2nc3ccccc3[nH]2)ccc1C | i
O=C(NCc1ccccc1Cl)c1ccc(CN2CCc3ccccc3C2)cc1 | i
COc1ccc(CSc2nnc(-c3ccncc3)n2-c2ccc(Cl)cc2)cc1 | i
Cc1cc(C)c(OCC(=O)Nc2c[nH]c(=O)[nH]c2=O)cc1C | i
CC(CCc1ccccc1)NC(=S)Nc1cccnc1 (stereo unspecified) | i
COC(=O)c1cccc(NC(=S)Nc2ccc(OC)c(OC)c2)c1 | i
CCOC(=O)c1c(NC(=O)CN2CCN(C=O)CC2)sc2c1CC(C)(C)OC2 | i
O=C(Cc1cccs1)Nc1cc(F)cc(F)c1 | i
CNS(=O)(=O)c1ccc2c(c1)oc(=O)c1cc(S(=O)(=O)NC)ccc12 | i
COc1ccc(S(=O)(=O)NCCc2cccc(Cl)c2)cc1 | 2%
CC(=O)c1ccc(NC(=S)Nc2ccc(Br)c(Cl)c2)cc1 | 2.1µg/mL*
COc1ccccc1NC(=O)c1ccccc1Oc1ccccc1C(=O)Nc1ccccc1OC | 4%
Cc1ccc(-c2nnc3c4cnn(Cc5ccccc5)c4ncn23)cc1 | 2%

Entries from the list above with a thiophene ring, fused or not:
SMILES | Mtb H37Rv
CCOC(=O)c1cc(CC)sc1NC(=O)c1ccc(Br)cc1 | i
CCCCn1c(CCNC(=O)c2cccs2)nc2ccccc21 | i
CC1(C)Cc2c(sc(NC(=O)c3ccccc3)c2C(N)=S)CO1 | i
COC(=O)c1ccc(CSc2nnc(CSc3nc4sc(C)c(C)c4c(=O)[nH]3)n2-c2ccccc2)cc1 | 2%
CCOC(=O)c1c(NC(=O)CN2CCN(C=O)CC2)sc2c1CC(C)(C)OC2 | i
O=C(Cc1cccs1)Nc1cc(F)cc(F)c1 | i

(next part)
SMILES | Mtb H37Rv
COc1ccccc1-c1c(C)nn2c(C(F)(F)F)cc(C)nc12 | i
COC(=O)CSc1nnnn1-c1cc(C)ccc1C | i
O=C(CSc1nc2ccccc2[nH]1)Nc1nc(-c2ccc(Br)cc2)cs1 | i
CCCC(CCC)C(=O)Nc1cccc(C(=O)NCC(C)C)c1 | i
O=C(NC1CCCCC1)c1ccc(F)c(F)c1 | i
COc1ccc(NC(=O)CSc2nc3c(cc2C#N)CCCC3)cc1 | i
CS(=O)(=O)N(CC(=O)N1CCCCC1)c1ccc(F)cc1 | i
Cc1cc(Oc2nnnn2-c2ccccc2)ccc1Cl | 7%
COc1ccc(NC(=O)CC2C(=O)N(c3ccc(Cl)cc3)C(=S)N2Cc2cccnc2)cc1 (stereo unspecified) | i
CCc1cccc(C)c1NC(=O)CCCOc1ccc(C(C)(C)C)cc1 | 32%
Cc1ccc(S(=O)(=O)N(C)c2ccc(C(=O)NCCSC(C)(C)C)cc2)cc1 | i
COc1ccc(NC(=S)Nc2ccc(O)cc2)cc1 | i
COc1cc2c(cc1NS(C)(=O)=O)oc1ccccc12 | i
N#Cc1c(-c2ccco2)cc(-c2ccccc2)nc1N | i
CC(C(=O)NCc1ccc(Cl)cc1Cl)N(c1ccccc1)S(C)(=O)=O (stereo unspecified) | i
O=C(Nc1ccon1)c1cc2c(s1)CCCC2 | i
CCS(=O)(=O)N1CCN(c2cccc(C)c2C)CC1 | 2%
CCOc1ccc2nc(NC(=O)CSc3nc4ccccc4s3)sc2c1 | i
Nc1nc(SCc2ccccc2Cl)n[nH]1 | i
O=C(Cc1ccccc1)Nc1ccc(F)c(Cl)c1 | i
CC(=O)c1ccc(NC(=S)NC(=O)c2cccc(I)c2)cc1 | 11%
CCc1ccc(C(C)NC(=O)c2ccccc2SCc2ccc(F)cc2)cc1 (stereo unspecified) | i
Cc1cc(C)cc(C(=O)Nc2ccc3oc(-c4cccc(F)c4)nc3c2)c1 | i
CCN(CC)c1ccc(N2C(=O)/C(=C/c3ccc(OC)cc3)SC2=S)cc1 | 1%
COc1ccc(Cl)cc1N/C(=N/c1nc(CSc2ccc(Cl)cc2)cc(=O)[nH]1)NC(=O)c1ccccc1 | i

Filtered by structure: the compounds so far containing a tert-butyl group.
SMILES | Mtb H37Rv
CCc1cccc(C)c1NC(=O)CCCOc1ccc(C(C)(C)C)cc1 | 32%
Cc1ccc(S(=O)(=O)N(C)c2ccc(C(=O)NCCSC(C)(C)C)cc2)cc1 | i

More results follow:
SMILES | Mtb H37Rv
O=C(c1cc(Br)cs1)n1cccn1 | i
O=C(CCN1C(=O)C2C3CCC(C3)C2C1=O)Nc1cccc(Cl)c1 (stereo unspecified) | i
COc1ccc(NC(=O)CC23CC4CC(CC(C4)C2)C3)cc1Cl | 3.1µg/mL*
O=C(COc1ccc(Cl)cc1Cl)OCC(F)(F)C(F)F | i
CCCN(CC#CCOc1ccc(OC)cc1)CCC | i
O=C(NN1C(=O)C2C(c3ccccc3)C=CC(c3ccccc3)C2C1=O)c1ccncc1 (stereo unspecified) | i
CC1CCc2sc3ncnc(NCc4cccnc4)c3c2C1 (stereo unspecified) | 17%
CCc1cc(=O)oc2cc(OCc3cccc(OC)c3)ccc12 | 44%
Cc1ccc(CNC(=O)C2CCNCC2)cc1 | i
COc1ccc(N(CC(=O)Nc2cccc([N+](=O)[O-])c2)S(=O)(=O)c2ccccc2)cc1OC | i
O=C(Nc1ccc(CN2CCCCC2)cc1)c1cccs1 | i
CCOc1ccccc1C(=O)Nc1cc(Cl)ccc1C(=O)O | i
COC(=O)CSc1[nH]c2ccc(Br)cc2c1[N+](=O)[O-] | i
C=CCn1c(N)cc(=O)nc1SCC(=O)Nc1cc(C)ccn1 | i
COc1ccc(OCCC(=O)N2CCOCC2)cc1 | i
O=c1cc(Cc2ccccc2)nc2cc(-c3ccc(Cl)cc3)[nH]n12 | 1%
Cc1cc(Cl)ccc1NC(=S)NCc1ccco1 | u
Cc1cc(OC(=O)N2CCCCC2)cc(C)c1Cl | 14%
COc1ccc(CSc2nnc(SCC(=O)Nc3ccc4c(c3)OCO4)s2)cc1 | 2%
Cc1ccccc1NC(=S)NCCc1ccccc1 | i
Cc1nnc(Sc2ccc([N+](=O)[O-])cc2C(=O)O)s1 | 7%
O=C(NC1CCCCCC1)C(=S)NC1CCCCC1 | i
CCN(C(=O)C12CCC(C)(C(=O)C1)C2(C)C)c1ccccc1 (stereo unspecified) | i
CCOC(=O)C1=CN(C(C)C)C=C(C(=O)OCC)C1c1cc(OC)c(OC)c(OC)c1 | i
CC1(C)CC(NC(=S)Nc2ccc(Nc3ccccc3)cc2)CC(C)(C)N1 | i
SMILES | Mtb H37Rv
Cc1ccc(-c2c3c(=O)n(C)c(=O)n(C)c3c3nnc4ccccc4n23)cc1 | 1%
CCCCSC1=C(C#N)C(c2ccc3c(c2)OCO3)CC(=O)N1 (stereo unspecified) | i
COc1ccc(C(=O)n2nc(C)cc2C)c(OC)c1 | 2%
COc1ccc(C(C)(C)C)cc1NC(=O)Nc1ccc(OC)c(OC)c1 | i
N/C(=N\OC(=O)Cc1cccc2ccccc12)c1ccccn1 | 15%
Cc1cc(C)c2c(N)n(-c3ccccc3)nc2n1 | 0%
OC1C2CCC1C(N1CCCCC1)CC2 (stereo unspecified) | i
CNCCOc1cccc(C(F)(F)F)c1 | i
Cc1c(Cl)cccc1N1CCN(C(=O)C23CC4CC(CC(C4)C2)C3)CC1 | 4%
CCOC(=O)c1c(NC(=S)NCc2cc(C)n(C)n2)sc(C)c1-c1ccccc1 | i
COc1ccccc1C(=O)NC(=S)Nc1cc(C)ccc1C | i
O=C(O)C1CCN(C2CC(=O)N(c3ccc(Cl)cc3)C2=O)CC1 (stereo unspecified) | i
CC(=O)Nc1ccc(C(=O)Nc2nnc(CC(C)C)s2)cc1 | i
O=C(Nc1ccc(Cl)c(C(F)(F)F)c1)c1csc2c1CCCC2 | 2.7µg/mL*
CCN(CC)c1ccc(C=Nn2c(-c3ccc(Cl)cc3)n[nH]c2=S)c(O)c1 | 0%
COc1ccc(C)cc1S(=O)(=O)N1CCN(S(=O)(=O)c2cc(C)ccc2OC)C(C)C1 (stereo unspecified) | 3%
CC(Oc1ccccc1)c1n[nH]c(=S)n1C (stereo unspecified) | i
O=C1C2CC=C(Cl)CC2C(=O)N1Cc1ccoc1 (stereo unspecified) | i
Cc1nc(SCC#N)c2c3c(sc2n1)CCC3 | i
CCCCc1ccc(N2CC(C(=O)O)CC2=O)cc1 (stereo unspecified) | i
Cc1cccc(NC(=S)NCCc2ccccc2)n1 | i
COc1ccccc1COc1cc2oc(=O)cc(-c3ccccc3)c2cc1Cl | i
Cc1onc(-c2ccccc2Cl)c1C(=O)NCc1ccccn1 | i
Cc1ccc(Cl)cc1NS(=O)(=O)c1ccc(NS(=O)(=O)c2ccc(Cl)cc2)cc1 | i
CCOC(=O)CNC(=O)c1cc(-c2ccc(C)c(C)c2)nc2ccccc12 | u

As entered above:
Mtb H37Rv result of `CCS(=O)(=O)N1CCN(c2cccc(C)c2C)CC1` = 2%
Mtb H37Rv result of `CCc1cccc(C)c1NC(=O)CCCOc1ccc(C(C)(C)C)cc1` = 32%
Mtb H37Rv result of `COC(=O)c1ccc(CSc2nnc(CSc3nc4sc(C)c(C)c4c(=O)[nH]3)n2-c2ccccc2)cc1` = 2%
Mtb H37Rv result of `N/C(=N\OC(=O)Cc1cccc2ccccc12)c1ccccn1` = 15%

Retrieved one by one from the list above, two records:
SMILES | Mtb H37Rv
Cc1ccc(-c2c3c(=O)n(C)c(=O)n(C)c3c3nnc4ccccc4n23)cc1 | 1%
COc1ccccc1COc1cc2oc(=O)cc(-c3ccccc3)c2cc1Cl | i

Following part:
SMILES | Mtb H37Rv
O=C(COc1ccc(Cl)cc1Cl)Oc1cccc2cccnc12 | 5.9µg/mL*
CC(C)(O)C(=O)NNC(=O)Nc1ccc(Br)cc1 | i
Cc1ccc(S(=O)(=O)Nc2ccc3c(c2)C(=O)NC3=O)cc1 | i
COc1ccc(NC(=O)CSc2[nH]c(=O)cc(C)c2C#N)cc1OC | i
CCOC(=O)N/C(N)=N\c1nc2ccccc2s1 | 15%
O=C(CCCC(=O)OCC(F)(F)C(F)F)Nc1cccc(Br)c1 | 0%
CC(NC(=O)C(=O)Nc1cccc(Cl)c1)c1ccccc1 (stereo unspecified) | i
O=c1[nH]nc(-c2ccc(NCc3cccnc3)c([N+](=O)[O-])c2)c2ccccc12 | 1%
CSc1ccc(/C=C/c2nc(N)nc(-c3ccccc3O)n2)cc1 | 4%
COc1cc(OC)c(NC(=O)c2c(-c3ccccc3)noc2C)cc1Cl | i
Cc1cccc(-n2c(-c3ccncc3)n[nH]c2=S)c1C | i
Cc1cccc(C)c1NC(=S)NNC(=O)C12CC3CC(CC(C3)C1)C2 | i
CN(C)c1nc(NCc2ccccc2)nc(SCC(=O)Nc2ccc(Cl)c(Cl)c2)n1 | 4%
CC(=O)Nc1ccc(OCC(=O)Nc2ccc(Cl)c(Cl)c2)cc1 | i
CCCC(=O)Nc1ccccc1NC(=O)c1ccccc1-c1ccccc1 | i
O=C1CC(Sc2ccc3ccccc3c2)C(=O)N1c1ccccc1 (stereo unspecified) | i
Cc1ccc(C)c(OCCCC(=O)Nc2ccc(N3CCOCC3)cc2)c1 | i
COc1ccccc1-c1nc(-c2ccc(C)nc2OC)no1 | i
CC(C)(C)OC(=O)NNC(=S)Nc1ccc2c(c1)OCO2 | i
COC(=O)C1CCN(C2CC(=O)N(c3cccc(C)c3)C2=O)CC1 (stereo unspecified) | i
Cc1ccc(NC(=O)c2cc(Cl)ccc2Cl)c(Br)c1 | 44%
COc1cccc(C2CC(c3ccc(F)cc3)Nc3ncnn32)c1 (stereo unspecified) | i
Cc1nc(-c2ccc(NS(=O)(=O)c3cccc4ccccc34)cc2)cs1 | 17%
Cc1nc(SCc2ccc(Br)cc2)n[nH]1 | i
CCOC(c1ccccc1)c1nc2ccccc2n1CC (stereo unspecified) | i
SMILES | Mtb H37Rv
O=C(Nc1cc(Cl)ccc1Cl)Nc1cc(Cl)ccc1Cl | i
Cc1ccc(C(=O)Nc2ccc(C(=O)OC(C)C)cc2)cc1C | 6%
Cc1ccccc1OCCSc1ncnc2nc[nH]c12 | i
Cc1cc(/C=C(/C#N)c2nc3ccccc3[nH]2)c(C)[nH]1 | i
Cc1cccc(C)c1NC(=O)c1ccc(C(C)C)cc1 | 38%
CCOC(=O)CNC(=O)c1ccc(-c2nn(C)c(=O)c3ccccc23)cc1 | i
COc1cc(S(=O)(=O)N2CCN(c3cccc(Cl)c3)CC2)ccc1Cl | 1%
Cc1cc(C)c(S(=O)(=O)Nc2nnc(C(C)C)s2)c(C)c1 | i
CCn1cc(Br)c(C(=O)NCc2ccco2)n1 | i
Cn1c(SCC(=O)N2CCCC2)nnc1-c1ccco1 | i
COc1ccc(OCC(=O)NCc2cc(-c3nn(C)c(=O)c4ccccc34)ccc2C)cc1 | i
Cc1cc(C)nc(SCc2cccc(C(=O)O)c2)n1 | i
Cc1cc(OCCOCCN2CCCC2)ccc1C(C)C | i
CN1C(=O)N(C)C(=O)C(CCc2ccncc2)(Cc2cccc3ccccc23)C1=O | i
COc1ccc(-c2csc(NC(=S)NC(=O)c3ccccc3F)n2)cc1 | 1%
O=C(C(Cc1ccccc1)N1C(=O)C2C3C=CC(C3)C2C1=O)N1CCCCC1 (stereo unspecified) | i

Not all compounds are listed; count on the stated rates, not on these rows.
